From PubChem
FGF22 binding – FGF22 (human) thermal shift binding. recombinant FGF22 thermal shift, SYPRO orange fluorescence; percent of sucrose octasulfate shift, DMSO zero. actives 1.5% (n = 340,000). calls only at 9.99 µM. AID 651658. Q9HCT0;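 active = melting point raised past a set limit in the mean and every replicate; inconclusive = no clear call; three in four hits are not shown here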
Target sequence (Q9HCT0 whole entry, looked up): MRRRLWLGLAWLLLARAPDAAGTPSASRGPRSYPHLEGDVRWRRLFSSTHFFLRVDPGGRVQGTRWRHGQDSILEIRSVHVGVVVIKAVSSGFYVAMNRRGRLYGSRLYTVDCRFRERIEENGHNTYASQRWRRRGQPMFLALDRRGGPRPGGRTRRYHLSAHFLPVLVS
rRNA inh HTS – selective bacterial rRNA inhibition in E. coli; E. coli WT GFP vs humanized-ribosome RFP mutants, fluorescence, 24 h; hits give low values; DMSO median 0, no signal -100; GFP signal change (wild-type ribosome), % (no concentration beside the values); actives 1.6% (n = 350,000); AID 720706;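 active = significant combined selectivity score with lowered wild-type GFP, culture density cut under 30%, mutant RFP and density less affected; inactive = any of these conditions unmet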; note: one replicate is shown; some compounds called inactive have numbers as strong as hits
T cruzi repl – blocks replication of Trypanosoma cruzi | actives 1.4% (n = 300,000) | T. cruzi beta-gal in NIH3T3, luminescence, 90 h | inhibition, % (no concentration beside the values);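 active = mean inhibition across valid replicates above about 55%, limit read from the data; inconclusive = mean below that limit but half or more replicates reach it; inactive = mean below it, under half of replicates reach it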;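 note: signal also drops with host cell toxicity which is not excluded here; 0% = plate median of DMSO wells and 100% = zero luminescence signal; higher percent means less beta-gal luminescence so fewer parasites; stock transfer was 50 nL into about 50 µL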
AF4-AF9 inh – inhibitors of human MLL-AF4/AF9 interaction; inhibition, % at 10 µM; actives 0.47% (n = 350,000); AID 651704; AlphaScreen, biotin-AF4 peptide binding to FLAG-AF9;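 active = every replicate reaching a set inhibition limit, whatever the replicate mean, cut at about 25% in these data; inconclusive = mean inhibition reaches that limit but some replicates miss it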;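 note: 0% = plate neutral control median and 100% = total signal loss; the record names both 10 and 1 µM as test concentration; the first replicate is given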
Target sequence (P42568 whole entry, looked up): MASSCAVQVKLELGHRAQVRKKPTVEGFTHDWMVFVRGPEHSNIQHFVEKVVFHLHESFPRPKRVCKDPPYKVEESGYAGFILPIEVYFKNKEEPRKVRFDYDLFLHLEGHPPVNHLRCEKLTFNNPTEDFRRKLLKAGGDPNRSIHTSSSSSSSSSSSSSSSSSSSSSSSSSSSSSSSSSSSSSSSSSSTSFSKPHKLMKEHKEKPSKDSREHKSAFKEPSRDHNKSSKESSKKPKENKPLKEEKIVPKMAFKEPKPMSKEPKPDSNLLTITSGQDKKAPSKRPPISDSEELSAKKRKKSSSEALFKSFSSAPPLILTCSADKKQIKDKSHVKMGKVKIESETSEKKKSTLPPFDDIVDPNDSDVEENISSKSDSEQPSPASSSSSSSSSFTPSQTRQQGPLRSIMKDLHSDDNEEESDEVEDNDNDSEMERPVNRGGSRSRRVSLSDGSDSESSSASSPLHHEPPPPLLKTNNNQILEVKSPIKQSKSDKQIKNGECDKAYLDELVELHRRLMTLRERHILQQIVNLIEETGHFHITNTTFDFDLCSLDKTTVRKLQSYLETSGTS
Beta apoptosis – blocks beta cell apoptosis; INS-1E cytokine-induced death, ATP luminescence, 48 h; percent of positive-control rescue, neutral wells zero; protection from apoptosis, % (no concentration beside the values); actives 0.8% (n = 300,000); AID 435005;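 active = all replicates at 75% or more, or half of them and the mean; inconclusive = half reach 75% but not the mean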;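 note: 0% = cytokine-treated negative control wells and 100% = positive control rescue; higher means more ATP so stronger rescue from cytokine killing; wells of about 40 µL received 100 nL stock; the first replicate is given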
Calb FLC – affects C. albicans growth with fluconazole; growth inhibition, % (concentration not given with the values); C. albicans CaCi-2 (fluconazole-resistant clinical isolate) + fluconazole, Alamar Blue growth, 48 h; actives 0.57% (n = 300,000); AID 1979;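 active = most replicates above 75%; inconclusive = exactly half above 75%; inactive = most below 75%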;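 note: all wells also contain fluconazole at 8 µg/ml as a sub-toxic cotreatment; 0% = median of DMSO wells and 100% = median of geldanamycin control wells; wells of about 8 µL received 7.5 nL stock; the first replicate is given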
ALR inh – blocks human ALR sulfhydryl oxidase activity; purified ALR, DTT oxidation, H2O2 HRP-luminol luminescence; inhibition, % (concentration not given with the values); actives 3.8% (n = 290,000); AID 485317;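 active = mean and each replicate at 75% or more; inconclusive = only one of the two met; inactive = neither met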;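 note: stock transfer was 7.5 nL into about 7.5 µL; 0% = neutral wells and 100% = wells with inactivated enzyme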
Target sequence (P55789 whole entry, looked up): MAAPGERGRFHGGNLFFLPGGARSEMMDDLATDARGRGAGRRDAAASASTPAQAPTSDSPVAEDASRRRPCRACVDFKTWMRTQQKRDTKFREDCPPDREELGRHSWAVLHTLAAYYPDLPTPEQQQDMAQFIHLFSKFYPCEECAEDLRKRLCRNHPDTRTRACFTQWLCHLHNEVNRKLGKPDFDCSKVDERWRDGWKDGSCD
RanGTP-Impb inh – inhibitors of RanGTP-importin-beta interaction, primary screen, biochemical, FRET, CFP-Ran, YFP-importin-beta, homogeneous. cell-free CFP-Ran/YFP-importin-beta FRET ratio. inhibition, % (test concentration not listed). actives 1.1% (n = 300,000). AID 2216;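 active = most replicates above 15%; inconclusive = exactly half above 15%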;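 note: 0% = DMSO wells and 100% = Ran loaded with GDP instead of GTP; wells of about 40 µL received 100 nL stock; the first replicate is given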
rRNA inh HTS OD600 – second read-out of rRNA inh HTS, no call of its own (marks repeat the call); OD600 change, %; measured here: OD600 growth;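 optical density of the mix in the first replicate; 0 = DMSO median and -100 = no signal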
rRNA inh HTS RFP – also measured in rRNA inh HTS; calls as there; RFP signal change, %; measured here: RFP humanized mutant strains;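 first replicate; 0 = DMSO median and -100 = no signal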
Starred values were filed as active, the others as inactive; i = inactive; ? = inconclusive; nt = not tested or not shown. This is a subset; the hit share may differ from the screen's.

SMILES	FGF22 binding	rRNA inh HTS	rRNA inh HTS OD600	rRNA inh HTS RFP	T cruzi repl	AF4-AF9 inh	Beta apoptosis	Calb FLC	ALR inh	RanGTP-Impb inh
COc1cccc(/C=C2\SC(=S)N(CCC(=O)NCCc3ccc(O)cc3)C2=O)c1	i	-7	3	-4.1	-21	0.2	-19	nt	3	-1.1
CC(=NCC1CCNCC1)C1=C(O)CC(C)(C)CC1=O	nt	nt	nt	nt	-3	nt	0	-4	-1	-0.1
NS(=O)(=O)c1ccc(Nc2ccc([N+](=O)[O-])c3nonc23)cc1	nt	3	5	5.7	11	-1.4	-1	11	nt	-16
O=C(CSc1nnc(-c2ccc(F)cc2)c2ccccc12)Nc1ccccc1Cl	i	14	5	8.3	31	1.5	1	-13	-12	2.1
O=C(Cc1ccc([N+](=O)[O-])cc1)NNC(=O)c1cccs1	i	0	4	-3.6	-13	-3.0	-4	0	nt	-0.4
O=C(Cn1nc(Cc2ccncc2)c2ccccc2c1=O)N1CCc2ccccc2C1	i	-4	-2	1.3	nt	4.9	-4	nt	-13	nt
Cc1c(C(=O)N(C)c2ccc(Cl)cc2)cnn1-c1ccccc1	i	-12	-17	0.1	-13	-3.6	-1	-14	nt	4.6
COc1ccccc1/C=C(/C#N)C(=O)O	i	5	5	-1.4	-2	-2.5	1	3	4	5.2
COCCN(C(=O)COC(=O)c1cc(C)oc1C)c1c(N)n(Cc2ccccc2)c(=O)[nH]c1=O	nt	3	6	2.7	-3	0.4	-5	1	13	2.6
CC(C)NC(=O)CSc1nnc(COc2ccccc2Cl)o1	nt	nt	nt	nt	-12	nt	-2	-2	6	2.1
CC(Oc1cccc(Cl)c1)C(=O)N1CCCN(C)CC1 (centres undefined)	i	9	13	-3.1	9	0.7	1	-9	5	-0.1
O=C(Cn1ncc2ccccc21)N1CCN(c2cccc(C(F)(F)F)c2)CC1	nt	nt	nt	nt	5	nt	3	-11	0	-1.7
CCc1nc2nc(C)c(NS(=O)(=O)c3cccs3)c(=O)n2[nH]1	i	4	11	-1.2	-8	0.0	-1	15	32	1.4
O=C(N/N=C\c1ccccn1)C1c2ccccc2Oc2ccccc21	i	-19	-19	1.4	0	4.1	1	0	-12	?
O=C(CC(c1ccccc1)(c1ccccc1)c1ccccc1)N[C@@H](Cc1ccccc1)C(=O)O	i	-13	-3	1.5	-6	-1.2	-9	-7	nt	1.0
Cc1cc(C)cc(N(C(C)C(=O)N2CCOCC2)S(C)(=O)=O)c1 (centres undefined)	i	16	12	3.2	-12	-0.6	nt	-7	-4	3.4
O=C(CCc1ccccc1)NCC(=O)N/N=C/c1ccc2c(c1)OCO2	i	2	0	-2.0	23	-5.6	-14	-1	nt	-0.1
O=C(Nc1cc(Cl)cc(Cl)c1)C(NCCCO)c1ccccc1 (centres undefined)	nt	nt	nt	nt	2	nt	-2	27	-4	1.8
O=C(CSc1nc(N2CCOCC2)nc(N2CCOCC2)n1)Nc1ccc(Cl)cc1Cl	i	-1	4	-7.5	3	-0.8	-1	0	-2	2.1
Cc1ccc(C(=O)Nc2nc(C(C)(C)C)cs2)s1	nt	nt	nt	nt	20	nt	22	-1	3	0.4
CN(C)S(=O)(=O)c1cccc(NC(=O)Cc2ccsc2)c1	i	5	1	0.4	4	-0.9	0	4	-14	-1.8
O=C(Nc1ccc(Cl)cc1)N(Cc1cccnc1)Cc1ccco1	nt	nt	nt	nt	61*	nt	-1	-4	nt	-1.1
Cc1nnc(C)n1/N=C/c1cc2ccccc2nc1Cl	i	3	8	-0.9	1	0.0	2	32	1	-2.8
CC1(C)CNC(=O)c2sc(NC(=O)CN3CCOCC3)nc2C1	nt	nt	nt	nt	-4	nt	-10	0	-30	1.1
COc1ccc(NS(=O)(=O)c2cc(NC(=O)/C=C/c3cc(OC)ccc3OC)ccc2N2CCCCC2)cc1	nt	nt	nt	nt	12	nt	-6	-6	4	-4.2
CCCCC1=CC2=C(c3ccco3)C(=O)C(C)(OC(=O)c3ccc(OC)cc3)C(=O)C2=CN1Cc1ccco1 (centres undefined)	nt	nt	nt	nt	13	nt	-2	4	-10	2.1
Cc1nc(CS(=O)(=O)c2ccc(Cl)cc2)sc1C(=O)O	i	22	8	0.2	-10	-0.6	2	-7	-2	2.8
CC(C)(C)N(CC(=O)NC1CCCCC1)C(=O)CS(=O)CC(=O)Nc1ccc(F)cc1 (centres undefined)	i	0	7	-0.4	-4	-13	7	1	-3	-1.2
CN1CCN(NC(=O)Nc2cccc(F)c2)CC1	i	-14	-13	0.5	35	-0.7	0	-11	1	4.4
CCCCN1C(=O)CCC(C(=O)O)C1c1ccccc1 (centres undefined)	nt	nt	nt	nt	-15	nt	-6	-12	-14	-0.8
COc1cc2c(OC(C)=O)c3c(c(-c4ccc5c(c4)OCO5)c2cc1OC)C(=O)OC3	i	nt	nt	nt	30	-0.6	58	66	-3	-0.6
CCOC(=O)C1(Cc2ccccc2C)CCCN(Cc2cn(C)nc2C)C1 (centres undefined)	nt	11	10	0.2	9	1.6	-2	-5	-4	-1.4
COCCCNCCCOc1ccc(Cl)cc1Br	nt	nt	nt	nt	47	nt	-7	3	-7	0.5
COc1ccc(C)cc1NC(=O)CN1C(=O)c2ccccc2S1(=O)=O	i	-1	-1	-8.3	-1	-4.3	nt	22	15	2.4
O=[N+]([O-])c1ccccc1S(=O)(=O)Nc1cccc2cccnc12	i	-52	-70	-16	15	-6.6	-6	0	-5	?
Cn1ncc(Cl)c1C(=O)N1CCN(c2ccc(Cl)c(Cl)c2)CC1	i	-39	-67	-2.5	1	0.9	21	65	-7	?

Shown comma-delimited: part of the list above
Compound,FGF22 binding,rRNA inh HTS,rRNA inh HTS OD600,rRNA inh HTS RFP,T cruzi repl,AF4-AF9 inh,Beta apoptosis,Calb FLC,ALR inh,RanGTP-Impb inh
COc1ccc(NS(=O)(=O)c2cc(NC(=O)/C=C/c3cc(OC)ccc3OC)ccc2N2CCCCC2)cc1,nt,nt,nt,nt,12,nt,-6,-6,4,-4.2
CCCCC1=CC2=C(c3ccco3)C(=O)C(C)(OC(=O)c3ccc(OC)cc3)C(=O)C2=CN1Cc1ccco1 (centres undefined),nt,nt,nt,nt,13,nt,-2,4,-10,2.1
Cc1nc(CS(=O)(=O)c2ccc(Cl)cc2)sc1C(=O)O,i,22,8,0.2,-10,-0.6,2,-7,-2,2.8
CC(C)(C)N(CC(=O)NC1CCCCC1)C(=O)CS(=O)CC(=O)Nc1ccc(F)cc1 (centres undefined),i,0,7,-0.4,-4,-13,7,1,-3,-1.2
CN1CCN(NC(=O)Nc2cccc(F)c2)CC1,i,-14,-13,0.5,35,-0.7,0,-11,1,4.4
CCCCN1C(=O)CCC(C(=O)O)C1c1ccccc1 (centres undefined),nt,nt,nt,nt,-15,nt,-6,-12,-14,-0.8
COc1cc2c(OC(C)=O)c3c(c(-c4ccc5c(c4)OCO5)c2cc1OC)C(=O)OC3,i,nt,nt,nt,30,-0.6,58,66,-3,-0.6
CCOC(=O)C1(Cc2ccccc2C)CCCN(Cc2cn(C)nc2C)C1 (centres undefined),nt,11,10,0.2,9,1.6,-2,-5,-4,-1.4
COCCCNCCCOc1ccc(Cl)cc1Br,nt,nt,nt,nt,47,nt,-7,3,-7,0.5
COc1ccc(C)cc1NC(=O)CN1C(=O)c2ccccc2S1(=O)=O,i,-1,-1,-8.3,-1,-4.3,nt,22,15,2.4
O=[N+]([O-])c1ccccc1S(=O)(=O)Nc1cccc2cccnc12,i,-52,-70,-16,15,-6.6,-6,0,-5,?

The list goes on.
SMILES	FGF22 binding	rRNA inh HTS	rRNA inh HTS OD600	rRNA inh HTS RFP	T cruzi repl	AF4-AF9 inh	Beta apoptosis	Calb FLC	ALR inh	RanGTP-Impb inh
O=C(Nc1ccccc1)NC1CS(=O)(=O)CC1O (centres undefined)	nt	nt	nt	nt	-16	nt	-1	12	-2	-0.4
O=C(NCc1cccc(F)c1)c1ccc2nc(N3CCOCC3)sc2c1	i	-4	-17	-3.3	-9	-12	-4	12	-3	-5.3
Cc1ccc(C(=O)NNC(=O)Cc2nc3nc(C)cc(C)n3n2)cc1	i	11	8	1.1	0	-0.1	-1	-1	nt	1.3
O=C1CC(N2CCN(S(=O)(=O)c3ccccc3)CC2)C(=O)N1c1ccccc1 (centres undefined)	i	8	-3	-4.5	-5	-1.6	-5	-8	-7	?
CC1c2cccn2CCN1S(=O)(=O)c1ccccc1 (centres undefined)	i	7	9	0.2	nt	4.2	-1	nt	1	nt
Cc1oc(-c2cc(F)ccc2F)nc1CN1CCC(C(=O)N2CCOCC2)CC1	i	4	15	1.4	-3	0.2	2	4	-9	-0.9
COc1cc2c(cc1OC)CN(C(=O)c1ccc(-c3ccccc3)cc1)CC2	i	-10	0	-0.3	2	-2.5	-7	4	6	1.8
COC(=O)[C@H]1C2CCC(C(=O)OC)(CC2)[C@H]1C(=O)OC	nt	nt	nt	nt	-2	nt	-2	-1	-7	-1.2
CCN(CC(=O)NC1CC1)S(=O)(=O)c1ccccc1	i	6	12	0.7	-12	0.4	-5	2	0	5.1
Cc1ccc([N+](=O)[O-])c(C(=O)N/N=C/c2cccnc2)c1	i	18	15	-0.2	-13	-2.1	-1	5	-15	-2.0
O=C(O)Cc1ccc(Nc2cnn(C34CC5CC(CC(CC(=O)O)(C5)C3)C4)c(=O)c2Cl)cc1	i	8	2	-2.8	3	2.2	-7	1	-20	?
CN(C)C(=O)c1cc(F)ccc1Sc1cc(Cl)ccc1Cl	nt	nt	nt	nt	10	nt	1	4	nt	1.9
CC(C)c1cc(C(=O)NCCc2ccccc2)no1	i	0	4	-5.1	-13	-3.9	-4	-7	0	2.1
CCOC(=O)c1ccc(-n2c(N)c(C(=O)NCC3CCCO3)sc2=S)cc1 (centres undefined)	nt	nt	nt	nt	-19	nt	-4	-18	11	-3.2
CCOC(=O)c1c(-c2ccc(C)cc2)csc1/N=C/N(C)C	i	-38	-53	-5.8	3	3.6	-3	11	33	2.7
CCOC(=O)CNC(=O)COc1coc(CN2CCN(c3ccccc3)CC2)cc1=O	i	16	9	4.7	2	-0.2	nt	0	22	12
CC(C)Cc1nnc(NC(=O)C2CSC3(C)CCC(=O)N23)s1 (centres undefined)	i	6	6	-3.5	0	-11	-10	-7	2	-2.7
COC(=O)[C@@H](NC(=O)Nc1ccc(S(N)(=O)=O)cc1)C(C)C	i	21	16	6.2	-5	7.5	3	-4	-2	0.2
CCOC(=O)CSc1nnc(CNC(=O)c2ccc([N+](=O)[O-])cc2)n1C	i	nt	nt	nt	-4	-2.4	-2	-8	-9	-3.9
